From PubChem BioAssay
N370S GC mod: N370S glucocerebrosidase modulation, Gaucher chaperone candidate; P04062; N370S GC spleen homogenate, 4MU-glucoside fluorescence; Potency, µM (top dose mostly 59.4 µM), inactives show top-dose activity change, negative = inhibition, actives largely listed as inhibitors; hit rate 0.092% among 330,000; AID 2101;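 further: 0% = full enzyme activity and -100% = no enzyme basal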
FEN1 inh: human FEN1 inhibition. P39748. Recombinant FEN1 flap cleavage, fluorescence, 15 min. Potency, µM (highest dose often 114 µM), for the others: at the top dose activity change, negative = inhibition, most hits filed as inhibitors. hit rate 0.35% among 390,000; further: nearly all actives have a fitted effect of over 65% in size
Target sequence (P39748 whole entry, looked up): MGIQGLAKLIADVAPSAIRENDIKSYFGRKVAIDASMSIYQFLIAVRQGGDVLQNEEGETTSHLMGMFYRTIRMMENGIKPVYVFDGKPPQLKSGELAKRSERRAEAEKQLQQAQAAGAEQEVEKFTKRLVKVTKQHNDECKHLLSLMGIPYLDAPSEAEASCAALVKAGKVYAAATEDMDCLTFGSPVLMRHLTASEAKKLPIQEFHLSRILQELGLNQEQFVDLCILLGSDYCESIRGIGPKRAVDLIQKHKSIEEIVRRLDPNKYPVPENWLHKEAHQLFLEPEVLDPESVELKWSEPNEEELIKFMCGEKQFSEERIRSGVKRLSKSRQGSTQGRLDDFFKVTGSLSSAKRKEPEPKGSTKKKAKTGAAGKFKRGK
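With each library titrated from low to high concentration, compounds met 10 nM FEN1 for 15 min at room temperature before 50 nM substrate was added; readings at 0 and 15 min fed four-parameter Hill curve fits.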
An asterisk follows results filed as active; u = inconclusive; x = no result given; & = joins results of further samples; [ ] = another dose, or the depositor's remark. The call rests on the fitted dose curve; in most records, active means well fitted curve in the direction sought with a large enough effect; inconclusive means small, poorly fitted or top-dose-only effect, or another doubt; inactive means no such curve, though single readings can be large; an effect the other way counts as inactive or inconclusive. Unless noted, on the % scale 0 is the no-effect control and ±100 the full control effect; potency means the concentration at half of the fitted maximal effect. An excerpt; most or all hits stand in other tables.

SMILES	N370S GC mod	FEN1 inh
O=C(O)c1cccc(-n2cccc2/C=C2/SC(=O)N(CC(=O)N3CCCC3)C2=O)c1	-15%	1%
CC(=O)OC1CC2C(C)(C)C(O)C=C[C@@]2(C)C2CC[C@@]3(C)C(c4ccoc4)OC(=O)C4OC43[C@]12C (some centres not stated)	-2%	x
O=C(CCC(=O)c1cccs1)NC1CCCCCC1	21%	-19%
Cc1cc(OCC(=O)NNC(=S)NC(=O)c2ccc(Br)o2)ccc1Cl	-5%	23%
CCOC(=O)c1ccc(NC(=O)c2cn(-c3ccccc3)nc2-c2ccncc2)cc1	-9%	-4%
Cc1ccc(NNC(=O)C(=O)N2CCCCC2)cc1	3%	-18%
Cc1cc(C)cc(NC(=O)CCCCCN2C(=O)[C@@H]3Cc4ccccc4CN3C2=O)c1	-20%	0%
O=C(NCCCN1CCCC1=O)c1ccc(Cl)c(Cl)c1	-1%	2%
C[C@@H]1O[C@H](O[C@@H]2[C@H](C)O[C@H](O[C@@H]3[C@H](C)O[C@H](O[C@H]4CC[C@]5(C)[C@@H](CC[C@@H]6[C@H]5C[C@@H](O)[C@]5(C)[C@@H](C7=CC(=O)OC7)CC[C@]65O)C4)C[C@@H]3O)C[C@@H]2O)C[C@H](O)[C@@H]1O	-11%[21.6 µM]	x
Cc1cc(C(=O)NNS(=O)(=O)c2cccc(Cl)c2)nn1C(C)(C)C	8%	-4%
CCc1ccc(CN(Cc2ccco2)c2cnc(S(C)(=O)=O)nc2C(=O)Nc2ccc(C)c(Cl)c2)cc1	x	15%
Cc1ccc(-c2c(C)sc(=NC(=O)c3ccco3)n2C)cc1	5%	0%
CCCn1c(=S)[nH]c2cc(C(=O)N3CCc4ccccc43)ccc2c1=O	4%	-5%
Cc1cc(C(=O)N2CCC(CO)(Cc3cccc(C(F)(F)F)c3)CC2)n[nH]1	-6%	9%
CCCCc1nnc(NC(=O)COC)s1	1%	4%
O=C(/C=C/c1ccccc1)Nc1nc(-c2cccs2)ns1	x	21%
CCOc1ccc(C(=O)Nc2ccc3nc(SCCOc4ccccc4)sc3c2)cc1	x	2%
CCC(C(=O)Nc1cc(OC)ccc1OC)n1c(=O)c(C(F)(F)F)nc2ccccc21 (configuration not stated)	x	1%
COc1ccccc1-n1c(SCC(=O)Nc2ccc3c(c2)OCO3)nc2c(c1=O)SCC2	14%	-13%
CC(C)(C)C1CCC(=NNC(=S)Nc2cccnc2)CC1 (configuration not stated)	3%	-2%
C=CCN1CCN(C(=O)c2cc3c(s2)CCCC3)CC1	-14%	-12%
CCCCN(C(=O)c1c(C)noc1C)c1c(N)n(CCC)c(=O)[nH]c1=O	x	2%
O=C(N/C(=C\c1cccc([N+](=O)[O-])c1)C(=O)N1CCOCC1)c1cccc(Br)c1	1%	8%
Cc1ccc(N(CC(=O)NCCc2ccccc2)C(=O)c2csnn2)cc1	0%	-11%
Cc1noc(C)c1S(=O)(=O)Nc1ccccc1OC(F)(F)F	-15%	5%
Cc1ccc(S(=O)(=O)NCC(=O)OCC(=O)Nc2ccccc2OC(F)F)cc1	-2%	1%
COc1ccc(C(=O)NCC(=O)OCC(=O)NCc2ccc3c(c2)OCO3)cc1	x	0%
CCC(C)c1ccc(NC(=O)C/C(C)=N/NC(=O)c2cnccn2)cc1 (configuration not stated)	-2%	-15%
COC(=O)C(CC(C)C)NC(=O)/C=C/c1ccccc1Cl (configuration not stated)	20%	2%
COc1cc(Cl)c(C)cc1NC(=O)CSc1ccc(C)cc1	4%	1%
CS(=O)(=O)Nc1ccc(C2=NN(S(C)(=O)=O)C(c3ccc4c(c3)OCO4)C2)cc1 (configuration not stated)	-24%	0%
CC(=O)NCCc1c[nH]c2ccc(OCC(O)CNC(C)(C)C)cc12 (configuration not stated)	6%	15%
CCN(CC)C(=O)[C@H]1C[C@H](CC(=O)NCc2ccc(OC)c(OC)c2)C(=O)N2CCc3c([nH]c4cc(-c5ccco5)ccc34)[C@]12C	x	-4%
O=C(NCc1cccnc1)c1cccc(S(=O)(=O)N2CCOCC2)c1	-1%	-1%
c1ccc(OCc2nc(-c3ccccc3)no2)cc1	-1%	-13%
COc1nc(-c2ccccc2)cc(-c2ccccc2)n1	4%	6%
COc1ccccc1N1CCN(C(=O)c2cn(CC(C)C)c(=O)c3c2c2ccccc2n3C)CC1	x	2%
Cc1nc(Cl)c(C(=O)NC(=O)Nc2cccc(C(F)(F)F)c2)c(C)c1[N+](=O)[O-]	3%	-3%
O=C1N/C(=C/c2ccc(Br)s2)C(=O)N1c1ccccc1	2%	-23%
CCCCOc1ccc(NC(=O)C2CC=CCC2C(=O)O)cc1 (configuration not stated)	2%	11%
Cc1cc(C)c(C)c(S(=O)(=O)N[C@@H](C)C(=O)OCC(N)=O)c1C	-1%	5%
COc1ccc(S(=O)(=O)N2CCCC(C(=O)NC3CC3)C2)cc1Cl (configuration not stated)	1%	3%
CCOC(=O)c1cnc2c(-c3ccc(Cl)cc3)cnn2c1C	-3%	5%
Cc1ccc(Nc2nc(-c3c(C)n(C)n(-c4ccccc4)c3=O)c(C)s2)cc1	0%	-1%
CN(CCOc1ccc(Cl)cc1)C(=O)c1ccccc1SCC(=O)N1CCCC1	x	20%
COc1ccc(-c2coc3cc(OC4OC(CO)C(O)C(O)C4O)cc(O)c3c2=O)cc1 (configuration not stated)	-24%	-3%
Cc1c(O)c2c(=O)n(-c3ccccc3)c(-c3ccccc3)cc2oc1=O	2%	-4%
CCOC(=O)CSc1nc2cc3c(cc2cc1C#N)OCO3	4%	0%
CCOC(=O)c1cnn(-c2ccccc2)c1-n1cccc1C(=O)C(=O)N(CC)CC	-5%	0%
FC(F)(F)c1cnc(N2CCCN(C(=S)Nc3ccccc3)CC2)c(Cl)c1	8%	-9%
Cn1c2c(c(=O)c3ccccc31)CCC(C)(C)O2	-8%	0%
CCN(CC)CCNC(=O)C1CCN(S(=O)(=O)c2c(C)noc2/C=C/c2ccccc2F)CC1	-15%	-6%&-2%
O=C(c1ccccc1Cl)N1CCN(C(=O)C2CCCO2)CC1 (configuration not stated)	2%	0%
CCCNC(=O)COC(=O)c1ccccc1OCC(=O)Nc1ccc(Br)cc1	u	-1%
CCc1cc(=O)oc2cc(OCC(=O)O)c(Cl)cc12	0%	-5%
CCN(CC(=O)Nc1cc(Cl)ccc1C)C(=O)CSCc1ccccc1	1%	-1%
C=C1/C(=C\C=C2/CCC[C@]3(C)[C@@H]([C@H](C)CCCC(C)(C)O)CC[C@@H]23)C[C@@H](O)C[C@@H]1O	0%&-20%	x
COCCNC(=O)C1CC2Cn3c(nc4cc(C)c(C)cc43)C2N1C (configuration not stated)	-6%	13%
CC1CCN(C(=O)c2ccc(NC(=O)c3nsc4ccccc34)cc2)CC1	x	-18%
CC(C)CCNC(=O)C(=O)NC1CCCC1	-3%	21%

2 compounds drawn at random from the list so far:
SMILES	N370S GC mod	FEN1 inh
CN(CCOc1ccc(Cl)cc1)C(=O)c1ccccc1SCC(=O)N1CCCC1	x	20%
CCc1ccc(CN(Cc2ccco2)c2cnc(S(C)(=O)=O)nc2C(=O)Nc2ccc(C)c(Cl)c2)cc1	x	15%

The results go on.
SMILES	N370S GC mod	FEN1 inh
CC(=O)Nc1ccc(NC(=O)C(C)OC(=O)c2cccs2)cc1 (configuration not stated)	x	0%
O=C(O)CCS(=O)(=O)Cc1cccc(Cl)c1	u	-14%
CCOc1ccc(NC(=O)c2sc3ccccc3c2Cl)cc1	x	-17%
O=C(Nc1nc2ccc(S(=O)(=O)N3CCCC3)cc2s1)c1cccs1	-13%	4%
C=CCS(=O)(=O)N1CCC(CCOc2ccccc2)(C(=O)OCC)CC1	-8%	-4%
CCOC(=O)c1[nH]c(C)c(C(=O)N2CCN(C(=O)c3ccco3)CC2)c1C	4%	-10%
COCCN1C=C(C(=O)OC)C(c2ccccc2Cl)C(C(=O)OC)=C1	u	-2%
Cc1ccc2nc(Nc3ccc(Br)cc3)nc(-c3ccccc3)c2c1	x	15%
O=C(NCc1cccnc1)C1COc2ccccc2O1 (configuration not stated)	-4%	9%
COCCn1c(SCC(=O)NCC2CCCO2)nc2c(c1=O)SC(C)C2 (configuration not stated)	-1%	-1%
Clc1ccc(-c2cn3cc(Cc4ccccc4)sc3n2)cc1	x	-1%
CC(/C=N/NC(=O)c1cccc(F)c1)=C\c1ccccc1	-10%	-22%
CC(=O)Oc1ccc(-n2c(=O)c3ccccc3c3ccccc3c2=O)cc1	0%	0%
N#Cc1cccc(NC(=O)CSc2nnc(-c3n[nH]c4ccccc34)o2)c1	-5%	-3%
COCC(C)n1c(C)cc(C(=O)COC(=O)CNC(=O)c2ccccc2)c1C (configuration not stated)	9%	5%

Some of these compounds in order of molecular weight, largest number first.
SMILES	N370S GC mod	FEN1 inh
CCCNC(=O)COC(=O)c1ccccc1OCC(=O)Nc1ccc(Br)cc1	u	-1%
C=C1/C(=C\C=C2/CCC[C@]3(C)[C@@H]([C@H](C)CCCC(C)(C)O)CC[C@@H]23)C[C@@H](O)C[C@@H]1O	0%&-20%	x
O=C(Nc1nc2ccc(S(=O)(=O)N3CCCC3)cc2s1)c1cccs1	-13%	4%
CCN(CC(=O)Nc1cc(Cl)ccc1C)C(=O)CSCc1ccccc1	1%	-1%
Cc1ccc2nc(Nc3ccc(Br)cc3)nc(-c3ccccc3)c2c1	x	15%
COCC(C)n1c(C)cc(C(=O)COC(=O)CNC(=O)c2ccccc2)c1C (configuration not stated)	9%	5%
C=CCS(=O)(=O)N1CCC(CCOc2ccccc2)(C(=O)OCC)CC1	-8%	-4%
CC1CCN(C(=O)c2ccc(NC(=O)c3nsc4ccccc34)cc2)CC1	x	-18%
N#Cc1cccc(NC(=O)CSc2nnc(-c3n[nH]c4ccccc34)o2)c1	-5%	-3%
CCOC(=O)c1[nH]c(C)c(C(=O)N2CCN(C(=O)c3ccco3)CC2)c1C	4%	-10%
COCCN1C=C(C(=O)OC)C(c2ccccc2Cl)C(C(=O)OC)=C1	u	-2%
CC(=O)Oc1ccc(-n2c(=O)c3ccccc3c3ccccc3c2=O)cc1	0%	0%
COCCNC(=O)C1CC2Cn3c(nc4cc(C)c(C)cc43)C2N1C (configuration not stated)	-6%	13%
CCOc1ccc(NC(=O)c2sc3ccccc3c2Cl)cc1	x	-17%
Clc1ccc(-c2cn3cc(Cc4ccccc4)sc3n2)cc1	x	-1%
O=C(c1ccccc1Cl)N1CCN(C(=O)C2CCCO2)CC1 (configuration not stated)	2%	0%
CCc1cc(=O)oc2cc(OCC(=O)O)c(Cl)cc12	0%	-5%
O=C(NCc1cccnc1)C1COc2ccccc2O1 (configuration not stated)	-4%	9%
O=C(O)CCS(=O)(=O)Cc1cccc(Cl)c1	u	-14%
CC(C)CCNC(=O)C(=O)NC1CCCC1	-3%	21%

(further entries)
SMILES	N370S GC mod	FEN1 inh
CCN(CC(=O)Nc1ccc(OC)cc1)C(=O)c1cc(S(=O)(=O)N2CCOCC2)ccc1N1CCCC1	1%	-5%
O=C(Nc1nnc(SCc2ccc(F)cc2)s1)C1CC(=O)N(c2ccc3c(c2)OCCO3)C1 (configuration not stated)	-17%	-7%
CC(C)CNc1cc(N2CCCC2)ccc1[N+](=O)[O-]	u	0%
CNC(=O)c1cc2cc(Cc3ccccc3Cl)ccc2oc1=O	13%	21%
Cc1ccc(CNC(=O)Cn2c(=O)n(Cc3ccccc3)c(=O)c3c2c2cc(C)ccc2n3C)cc1	x	2%
O=[N+]([O-])c1cccc(/C=N\N2CCN(Cc3ccccc3Cl)CC2)c1	-11%	-4%
COc1ccc(NC(=O)C2CCN(C(=O)c3sc4nc[nH]c(=O)c4c3C)CC2)c(OC)c1	x	4%
CCCCCCCCn1cc(C(C)=O)c(=O)[nH]c1=O	5%	-11%
CCC1(CC)NC(=O)N(CC(=O)OC(C)C(=O)Nc2cc([N+](=O)[O-])ccc2OC)C1=O (configuration not stated)	-1%	-1%
Cc1cc(NC(=O)CSc2nnc3c(C)cc4ccccc4n23)no1	-2%	8%
COc1ccc(/C=N/NC(=O)c2ccoc2C)cc1COc1ccc(Cl)cc1	-11%	-19%
COc1ccc(S(=O)(=O)NC(C)C(=O)NCc2cccnc2)cc1Cl (configuration not stated)	-10%	14%
CCOc1ccc(CN2C(=O)CC(=O)N(S(=O)(=O)c3ccc(OCC)cc3)C2=O)cc1	1%	-5%
O=C(CCSc1ccccc1)Nc1ccccc1Br	4%	-20%
Cc1ccc(OCC(=O)N(C)Cc2ccccc2)c([N+](=O)[O-])n1	3%	-8%
O=C(c1ccc(F)cc1)N1CCCCC(Sc2nnnn2-c2ccccc2)C1=O (configuration not stated)	11%	-4%
O=C(CN(c1ccc(Cl)cc1)S(=O)(=O)c1ccc(Cl)c([N+](=O)[O-])c1)NCCc1ccc(F)cc1	0%	-1%
COc1ccc(C)cc1NS(=O)(=O)c1cn(C)nc1C	-2%	6%
Cc1cccc(S(=O)(=O)NCCC(=O)OC(C)C(=O)NC(=O)NC2CCCCC2)c1 (configuration not stated)	-6%	-13%
COc1cccc(CNC(=O)c2ccc(COc3ccccc3)cc2)c1	-4%	-7%
C[C@H]1COC(=O)[C@@H](Cc2ccc(F)cc2)C/C=C\C[C@@H](CC(=O)N[C@@H](CO)Cc2ccccc2)C(=O)N1	x	9%
COc1ccccc1N1C(=O)N(C(C)=O)C2C1Nc1ccccc1N2C (configuration not stated)	0%	-9%
CCN1C(=O)c2ccccc2S(=O)(=O)c2ccc(C(=O)NCc3ccccc3)cc21	x	1%
Cc1cc(C)n2nc(SCC(=O)c3ccccc3)nc2n1	4%	-2%
O=C1CCCc2sccc2N1	-9%	10%
COc1ccc(C(=O)NC(=S)NCc2ccccc2)cc1OC	2%	-25%
Cc1ccc2nc(-c3ccccc3NC(=O)CCC(=O)O)c(=O)[nH]c2c1	7%	3%
